# Vaccinia pol inh: blocks vaccinia virus processive DNA synthesis. in vitro processive DNA synthesis, absorbance read-out; active compounds read low; some inactives read as strong as hits. normalized absorbance, % (no concentration beside the values). 46,000 compounds, 0.94% hits;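 active = replicate mean up to 90% and picked by the depositor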;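 also: 100% = median of the test wells of a plate; 100 nL library stock went into each well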
# The depositor's hits bear a star; & = joins results of further samples. A portion of the library (hit frequency here may not be typical).
smiles,Vaccinia pol inh
CC1(C)OC2[C@H](n3cnc4c(N)ncnc43)O[C@H](CO)[C@H]2O1 (stereo partly specified),92
O=C(OCC(=O)c1ccccc1Br)c1ccco1,101
C1=CC2c3ccccc3NC(c3ccncc3)C2C1 (stereo unspecified),101
CC1CCN(C(=O)CSc2c3c(nc4ccccc24)CCCC3)CC1,103
O=C(NCCN1C(=O)S/C(=C\c2ccc(F)cc2)C1=O)c1cc(F)c(F)c(F)c1F,100
Oc1ccccc1C(C#Cc1ccccc1)N1CCCCC1 (stereo unspecified),101
CC(C)C1N=C2c3ccccc3N=C(SCc3ccccc3F)N2C1=O (stereo unspecified),101
O=C(CN1C(=O)CCC1=O)Nc1ccc2c3c(cccc13)CC2,94
O=S1(=O)CCN(CCc2c[nH]c3ccccc23)CC1,93
Cc1ccsc1CNn1cnnc1SCc1ccc(Cl)cc1,100
CN1CCN(NC(=O)CCN2C(=O)/C(=C\c3ccccc3)SC2=S)CC1,100
Cc1cccc(NC(=O)c2cc3c(ccc4ccccc43)oc2=O)c1,101
NC(=O)COC(=O)c1ccc(Br)o1,98
CC(=O)[C@@]1(O)CCC2C3C=C(Cl)C4=CC(=O)[C@@H]5CC5[C@]4(C)C3CC[C@@]21C (stereo partly specified),100
O=C(Nc1ccc(N2CCCCC2)cc1)Nc1ccccc1OC(F)(F)F,104

# Reprinted from the part before: 10 entries, followed by the next part.
smiles,Vaccinia pol inh
Oc1ccccc1C(C#Cc1ccccc1)N1CCCCC1 (stereo unspecified),101
CC(C)C1N=C2c3ccccc3N=C(SCc3ccccc3F)N2C1=O (stereo unspecified),101
O=C(CN1C(=O)CCC1=O)Nc1ccc2c3c(cccc13)CC2,94
O=S1(=O)CCN(CCc2c[nH]c3ccccc23)CC1,93
Cc1ccsc1CNn1cnnc1SCc1ccc(Cl)cc1,100
CN1CCN(NC(=O)CCN2C(=O)/C(=C\c3ccccc3)SC2=S)CC1,100
Cc1cccc(NC(=O)c2cc3c(ccc4ccccc43)oc2=O)c1,101
NC(=O)COC(=O)c1ccc(Br)o1,98
CC(=O)[C@@]1(O)CCC2C3C=C(Cl)C4=CC(=O)[C@@H]5CC5[C@]4(C)C3CC[C@@]21C (stereo partly specified),100
O=C(Nc1ccc(N2CCCCC2)cc1)Nc1ccccc1OC(F)(F)F,104
CS(=O)(=O)Nc1cc(-c2nnc(Nc3ccccc3)c3ccccc23)ccc1N1CCOCC1,100
S=C(NC1CCCCC1)N(Cc1ccccc1)CC1CC=CCC1 (stereo unspecified),99
O=C(COC(=O)c1ccc2ccccc2n1)Nc1ccccc1-c1ccccc1,90
O=C(N1CC(Oc2ccc(Cl)cc2)C1)N1CC(Oc2ccc(Cl)cc2)C1,102
O=C(Nc1ccc(CN2CCS(=O)(=O)CC2)cc1)c1ccco1,110
COc1ccc(C2C(C(=O)N3CCOCC3)CCC(=O)N2c2ccc(OC)cc2)cc1 (stereo unspecified),101
CC1=CC(C)(C)N(C(C)C)C(=O)N1c1ccc(C)cc1,100
C=CCn1c2ccccc2n2cc(-c3ccccc3)nc12,100
COc1cccc(/C=C2\SC(=S)N(CCCC(=O)Nc3ccccc3C(F)(F)F)C2=O)c1,94
CC1CCC(C(C)C)C(=O)/C1=C\c1ccc(NC(=O)CCC(=O)O)cc1 (stereo unspecified),100
COc1ccc(C2=Nn3cnnc3SC2)cc1OC,100
COc1nc(Nc2ccc(OC(F)(F)F)cc2)nc(NC2CC2)n1,98
O=C(CCCN1C(=O)S/C(=C/c2ccccc2)C1=S)N1CCOCC1,99
CCOC(=O)CSC1=C(C#N)C(c2ccc(Cl)cc2)C(C(=O)OC)C(=O)N1 (stereo unspecified),100
Cc1c(C(=O)N2CCCC2)sc2nc(-c3ccccc3)cn12,99
CC(C)c1ccccc1NN,97
CCN(CC)c1nc2ccccc2c(N)c1-c1ccccc1,100
COc1cc2c(cc1OC)C(c1c(-c3ccccc3)noc1C)=NCC2,112
N#CC1CCN(Cc2ccccc2)CC1,102
COc1cc(NS(=O)(=O)c2ccc(N)cc2)nc(OC)n1,100
Cc1cccc(Cn2c(CO)nc3ccccc32)c1,102
O=C(O)CC1(CC(=O)Nc2cccc(C(F)(F)F)c2)CCCC1,100
CC(=O)Oc1ccc2c(-c3ccccc3)cc(=O)oc2c1C,83
O=C1OCc2ccc(NS(=O)(=O)c3ccc(C(F)(F)F)cc3)cc21,92
C=CCNC(=O)c1ccccc1NS(=O)(=O)c1ccc(Br)cc1,99
CCOC(=O)CSc1ccc2ccccc2n1,102
O=C(NCc1ccc2c(c1)OCO2)c1cccc2ccccc12,100
OC(COc1ccc(Br)cc1)Cn1ccnc1 (stereo unspecified),101
Cc1ccc(S(=O)(=O)C(F)(F)F)cc1,99
CC(C)NC(=O)c1ccccc1C(=O)NC(C)C,92
Cc1ccc(C)c2[nH]c(=O)c(CCNC(=O)C(C)Oc3ccccc3)cc12 (stereo unspecified),100
CCC(C(=O)NC1CCCC1)n1c2ccccc2c2nc(=O)cc(C)n21 (stereo unspecified),100
CCCCN(CC)C(=O)C1c2ccccc2C(=O)N(CCOC)C1c1ccc(F)cc1 (stereo unspecified),104
O=C(NCC(O)c1ccccc1)Nc1ccccc1 (stereo unspecified),98
CSc1nc2ccc(NC(=O)CCc3ccccc3)cc2s1,100
Cn1c(C(=O)Nc2cccc(C(F)(F)F)c2)cc2c(=O)oc3ccccc3c21,103
O=C(COc1ccc(Cl)cc1)n1cnnc1,99
Oc1ccccc1/C=N/c1ccccn1,96
O=C(Nc1ccccc1)c1c[nH]c(=O)n(-c2ccccc2)c1=O,101
S=C1NCN(Cc2ccccc2)CN1CC1CCCO1 (stereo unspecified),99
COc1ccccc1NC(=O)c1cccc(N2C(=O)C3CC=CCC3C2=O)c1 (stereo unspecified),89
COc1ccc2cc(S(=O)(=O)c3ccc(C)c(C)c3)c(=Nc3ccc4c(c3)OCCO4)oc2c1,106
COc1ccc(CCNC(=O)NC(C)(C)C)cc1,86
CCc1ccc(NCc2c(C(=O)O)cnn2-c2ccccc2)cc1,93
COc1ccc(S(=O)(=O)Nc2cc(C)cc(C)c2)cc1,92

# Looked up above:
# COc1ccc(S(=O)(=O)Nc2cc(C)cc(C)c2)cc1 in Vaccinia pol inh reads 92
# Cc1ccc(C)c2[nH]c(=O)c(CCNC(=O)C(C)Oc3ccccc3)cc12 (stereo unspecified) in Vaccinia pol inh reads 100
# CCCCN(CC)C(=O)C1c2ccccc2C(=O)N(CCOC)C1c1ccc(F)cc1 (stereo unspecified) in Vaccinia pol inh reads 104
# COc1ccc2cc(S(=O)(=O)c3ccc(C)c(C)c3)c(=Nc3ccc4c(c3)OCCO4)oc2c1 in Vaccinia pol inh reads 106

# Later entries.
mol | Vaccinia pol inh
CCn1cc(C(=O)NCc2cccnc2)c2cc(OC)c(OC)cc2c1=O | 103
COc1ccc(C(=O)CSc2nc3ccccc3[nH]2)c(OC)c1 | 104
CCN1CN=C(SCc2cccc(C#N)c2)NC1 | 69
CC(C)CN(CC(C)C)C(=O)c1cc2c(=O)n3ccccc3nc2s1 | 88
COc1cccc(OC)c1SC | 112
C=CCc1cc(OC)cc(CC=C)c1O | 104
CCCNC(=O)CSc1nc(-c2cccs2)cc(C(F)(F)F)n1 | 104
CC(=O)Nc1cc2nc(N)sc2cc1NC(C)=O | 100
COC(=O)c1ccc2nc(NC(=O)C3CC3)sc2c1 | 72
CC(C)NC(=O)CCc1nnc2n(Cc3ccccc3)c(=O)c3ccccc3n12 | 97
O=S(=O)(c1ccccc1)N1C2C=CC(C2)C1(C(F)(F)F)C(F)(F)F (stereo unspecified) | 110
O=C(c1cc2ccccn2n1)N1CCN(c2ccc(Cl)nn2)CC1 | 103
CC1=NN2C(=N)/C(=C/c3cn(CCOc4c(C)cccc4C)c4ccccc34)C(=O)N=C2S1 | 101
Cc1oc(S(=O)(=O)N2CCCC2)cc1-c1nc(-c2ccc(F)cc2)no1 | 97
NCCCCCCNS(=O)(=O)c1cccc2c(Cl)cccc12 | 97&103&87
O=C(CCCN1C(=O)S/C(=C\C=C\c2ccccc2)C1=O)Nc1ccc(C(=O)O)cc1 | 98
COC(=O)c1cc(NC(=O)c2cccc(Cl)c2)cc(C(=O)OC)c1 | 100
Oc1c(C(c2ccc(F)cc2)N2CCCCC2)ccc2cccnc12 (stereo unspecified) | 104
O=C(O)CC1(c2ccccc2)C(=O)c2ccccc2C1=O | 80
CCOC(=O)C1=C(NN(C)c2ccccc2)C(=O)N(C)C1 | 100
Cn1c(=O)nc2n(-c3cccc(C(F)(F)F)c3)c3ccccc3cc-2c1=O | 100
O=C(c1cccc(NS(=O)(=O)c2ccc(F)c(F)c2)c1)N1CCCCC1 | 97
Cc1cccc(C(=O)OCC(=O)NCc2ccccc2Cl)c1O | 94
Cc1ccc(NS(=O)(=O)c2ccccc2)c(NS(=O)(=O)c2ccccc2)c1 | 98
Cc1ccc(N=Cc2ccc3c(c2)OCO3)c(Br)c1 | 100
Cc1cccc2nc(CSCc3ccco3)cn12 | 80
O=C1CCCN1c1ccc(S(=O)(=O)Nc2noc3ccccc23)cc1 | 95
O=C(Cc1csc(Nc2nc(=S)[nH]c3ccccc23)n1)NCc1cccc(Cl)c1 | 100
CCOC(=O)C1=C(C)OC(N)=C(C(=O)OCC)C1c1cccnc1 (stereo unspecified) | 97
CC(C)(C)c1ccc(C(=O)Nc2c3c(nn2-c2cccc(Cl)c2)CS(=O)C3)cc1 (stereo unspecified) | 100
C=CCN1C(=O)/C(=C/c2cc(C)n(CCOC)c2C)C(=O)NC1=S | 100
O=S(=O)(c1ccc(N2CCOCC2)nc1)N(Cc1ccccn1)Cc1ccccn1 | 100
CC(C)(C)C(=O)Nc1nnc(SCc2ccc(Cl)cc2Cl)s1 | 100
N#Cc1ccccc1Nc1ccnc(C(F)(F)F)c1 | 87
COC(=O)Cc1cccc2ccccc12 | 103
Cc1ccc(SCc2cn3c(C)csc3n2)cc1 | 105
CCN/C=C(\C#N)S(=O)(=O)c1ccc(Br)cc1 | 88
Oc1ccc(Br)cc1-c1cc(-c2ccco2)[nH]n1 | 87
COc1ccc(-c2nn(C)c(=O)c3ccccc23)cc1CNC(=O)c1ccco1 | 100
CC1CC(NC(=O)CCn2c(=O)oc3ccccc32)CC(C)(C)C1 (stereo unspecified) | 103
O=C1NC(=O)C(Cc2ccc(C(=O)O)cc2)S1 (stereo unspecified) | 120
CN(C)c1nc(Oc2ccc(=O)[nH]n2)nc(N2CCCCC2)n1 | 100
COc1ccc2c(c1)=C(c1sc(=S)[nH]c1O)C(=O)N=2 | 98
CC1CCCC(C)N1C(=O)c1ccc(NC(=O)C(O)(c2ccccc2)c2ccccc2)cc1 (stereo unspecified) | 100
COc1ccc(CCNc2cc3c(nn2)Oc2ccccc2N3C)cc1OC | 109
COC(=O)c1ccccc1NC(=O)c1ccc2c(c1)CC(C)O2 (stereo unspecified) | 105
Cc1cc(C)cc(NC(=S)NC2CCCCC2)c1 | 100
CC(C)(C)C(=O)NC(c1ccccc1)c1c(O)ccc2ccccc12 (stereo unspecified) | 100
Nc1cc(-c2ccccc2)ccc1O | 96
FC(F)(F)c1cc(C(F)(F)F)n2nc(-c3ccccc3)cc2n1 | 110
Cc1ccc(C(=O)C2COC(=O)C2)cc1 (stereo unspecified) | 102
CCOc1ccc(C(CC(=O)O)N2Cc3ccccc3C2=O)cc1 (stereo unspecified) | 100
Cc1onc(-c2ccccc2Cl)c1C(=O)NC1=NCCS1 | 101
O=C(C1CC1)N1CCc2cc(Br)cc(S(=O)(=O)NCCc3ccccc3Cl)c21 | 98
O=C(Nc1ccccc1)Nc1ccc(NC(=O)c2ccccc2O)cc1 | 96
NC(=O)CCn1c(=O)oc2ccccc21 | 116
CSc1sc(C#N)c(C)c1-c1ccn(C(=O)c2ccc(Cl)cc2)n1 | 92
O=C(O)CCc1cn(CCC(=O)O)cn1 | 100
Cc1cc(C)cc(C(=O)OCC(=O)Nc2cccc(C(F)(F)F)c2)c1 | 90
O=C(CCSCc1cnn(-c2ccccc2)c1-n1cccc1)NCC1CCCO1 (stereo unspecified) | 89

# Later entries
mol | Vaccinia pol inh
CN1N=Nc2ccc(Br)cc2C1c1ccccc1 (stereo unspecified) | 101
O=S(=O)(N1CCOCC1)n1cnc2ccccc21 | 91
O=C(CSc1ccccc1C(=O)O)NCCc1ccccc1 | 104
CC(=O)Nc1ccccc1OCC(O)CS(=O)(=O)c1ccc(C(F)(F)F)cn1 (stereo unspecified) | 100
O=c1oc(-c2cc3ccccc3s2)ns1 | 100
CCN(CC)C(=S)NC(=S)c1ccc(C)cc1 | 86
COc1ccc(-c2cc(-c3ccccc3)nc(SCC(=O)N3CCCCC3)c2C#N)cc1 | 95
CC(C)c1ccc(NC(=O)C2CCC(CNS(=O)(=O)c3cccs3)CC2)cc1 (stereo unspecified) | 102
CC(C)C(=O)Nc1nnc(-c2ccccc2)s1 | 60*
O=S(=O)(c1ccc(Br)s1)N1CCCC1 | 100
CC(=O)Oc1c[n+]([O-])n(-c2ccccc2)n1 | 101
COc1ccc(C(=O)CS(C)(=O)=O)cc1 | 94
c1csc(CCNc2ncnc3sc4c(c23)CCC4)c1 | 100
COc1ccc(/C=C2/SC(=S)N(C)C2=O)c(OC)c1 | 108
O=C(O)CC1(CC(=O)NC2CCN(Cc3ccccc3)CC2)CCCC1 | 96
Cn1c(=O)c(C2=NN=C3NNC(c4ccccc4)C32)c(O)c2ccccc21 (stereo unspecified) | 101
COc1ccccc1NC(=O)N1CCN(C(c2ccccc2)c2ccccc2)CC1 | 107
CN(C)CCOC(=O)C1(C#N)CC2c3ccccc3C1c1ccccc12 (stereo unspecified) | 100
Clc1cccc(Cl)c1CSCc1cc2ccccc2o1 | 98
CCn1c(SCC(N)=O)nnc1-c1c[nH]c2ccccc12 | 101
CCC(C)NC(=O)C1CCCN(S(=O)(=O)c2ccc(C)cc2)C1 (stereo unspecified) | 93
CC1CCN(CCCNC(=O)C2(S(=O)(=O)c3ccc(Cl)cc3)CC2)CC1 | 99
O=c1[nH]nc(-c2cccs2)cc1CC1CCCCC1 | 100
O=C1C2C3C=CC(C3)C2C(=O)N1/N=C/c1ccccc1O (stereo unspecified) | 100
COc1cc(C(=O)NCC(c2cccnc2)N2CCOCC2)cc(OC)c1OC (stereo unspecified) | 100
